rRNA inh HTS – inhibits bacterial ribosomal RNA function over humanized ribosomes; 350,000 tested, 1.6% active; E. coli WT GFP vs humanized-ribosome RFP mutants, fluorescence, 24 h; stronger effect = lower value; DMSO median 0, no signal -100; GFP signal change (wild-type ribosome), % (no concentration beside the values); AID 720706;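 active = significant combined selectivity score with lowered wild-type GFP, culture density cut under 30%, mutant RFP and density less affected; inactive = any of these conditions unmet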; note: one replicate is shown; some compounds called inactive have numbers as strong as hits
ALR inh – blocks human ALR sulfhydryl oxidase activity. P55789. purified ALR, DTT oxidation, H2O2 HRP-luminol luminescence. inhibition, % (no concentration beside the values). 290,000 tested, 3.8% active. AID 485317;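 active = mean and each replicate at 75% or more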;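 note: stock transfer was 7.5 nL into about 7.5 µL; 0% = neutral wells and 100% = wells with inactivated enzyme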
Target sequence (P55789 whole entry, looked up): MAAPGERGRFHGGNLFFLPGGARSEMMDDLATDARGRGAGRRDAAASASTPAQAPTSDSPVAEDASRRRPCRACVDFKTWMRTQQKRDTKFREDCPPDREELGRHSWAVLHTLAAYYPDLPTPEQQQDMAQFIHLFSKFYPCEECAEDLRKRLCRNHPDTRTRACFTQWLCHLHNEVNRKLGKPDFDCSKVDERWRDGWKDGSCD
FGF22 binding – binders of recombinant human FGF22 by thermal shift; Q9HCT0; SYPRO orange fluorescence; percent of sucrose octasulfate shift, DMSO zero; calls only at 9.99 µM; 340,000 tested, 1.5% active;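 active = melting point raised past a set limit in the mean and every replicate; three in four hits are not shown here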
Target sequence (Q9HCT0 whole entry, looked up): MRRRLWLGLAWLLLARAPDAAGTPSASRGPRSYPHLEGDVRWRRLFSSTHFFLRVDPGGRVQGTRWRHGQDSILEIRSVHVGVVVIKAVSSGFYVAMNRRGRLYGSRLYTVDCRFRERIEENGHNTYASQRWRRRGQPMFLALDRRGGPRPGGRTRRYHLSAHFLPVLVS
B2AR ag – agonists of human beta-2 adrenergic receptor inducing internalization | P07550 | Am2.2-beta2AR cells, FAP receptor internalization, flow cytometry; reference of the scale not given here | response, % (concentration not given with the values) | 340,000 tested, 0.43% active | AID 504454;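 active = response above a set limit, near 3 SD of response in nonfluorescent compounds, cut at about 42% in these data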;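 note: stock transfer was 100 nL into about 11 µL; a reference agonist was the positive control; negative values mostly stem from fluorescent compounds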
UCH37 inh – human UCH37 deubiquitinating enzyme inhibition | Q9Y5K5 | purified proteasome/UCH37, Ub-AMC cleavage fluorescence | inhibition, % (concentration not given with the values) | 330,000 tested, 0.33% active;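 active = mean of two replicates above 20%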;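 note: 0% = compound-free wells with enzyme and 100% = wells lacking proteasome; stock transfer was 100 nL into about 20 µL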
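Material: Human UCH37 enzyme supplied as purified proteasome complex | Schedule: 30 min preincubation with enzyme, 25 min cleavage at room temperature | Detection: AMC fluorescence 355/460 nm | Measure: % inhibition of Ub-AMC cleavage fluorescence | Controls: Wells without proteasome as full block, compound-free enzyme plus substrate as uninhibited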
HNF4A DNA FP – change in binding of human HNF4 alpha to DNA | activity change, % at 10 µM | HNF4a-FITC DNA binding, fluorescence polarization, 1 h | 360,000 tested, 0.3% active | P41235; in the data active = activity change above about 30%, passing the limit was not always enough;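 note: controls were the assay level and a saturating level of protein; the project sought stronger binding though the title names inhibitors; some compounds called inactive have numbers as strong as hits; positive values seem to mean higher polarization but the record does not say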
Target sequence (P41235 whole entry, looked up): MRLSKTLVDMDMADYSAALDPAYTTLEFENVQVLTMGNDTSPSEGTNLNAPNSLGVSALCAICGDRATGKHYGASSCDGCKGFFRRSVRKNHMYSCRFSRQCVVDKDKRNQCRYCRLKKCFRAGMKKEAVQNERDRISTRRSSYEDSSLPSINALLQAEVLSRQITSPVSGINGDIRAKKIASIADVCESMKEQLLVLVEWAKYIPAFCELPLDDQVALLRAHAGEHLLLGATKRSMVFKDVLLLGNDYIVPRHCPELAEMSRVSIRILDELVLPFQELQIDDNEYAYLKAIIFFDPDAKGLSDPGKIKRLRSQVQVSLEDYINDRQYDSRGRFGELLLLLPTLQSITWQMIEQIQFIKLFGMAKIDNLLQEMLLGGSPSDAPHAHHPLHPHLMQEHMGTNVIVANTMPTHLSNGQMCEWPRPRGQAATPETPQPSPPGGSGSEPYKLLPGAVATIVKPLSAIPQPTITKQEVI
E coli growth – E. coli growth inhibition; Escherichia coli growth, OD600, 23 h; stronger effect = lower value; OD600 absorbance (concentration not given with the values); 330,000 tested, 0.21% active; AID 1053175;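 active = OD600 absorbance below the run mean of sample wells minus 3.6 SD, in any replicate, cut at about 0.56 in these data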;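 note: stock transfer was 300 nL into about 60 µL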
rRNA inh HTS OD600 – recorded beside rRNA inh HTS, whose call it bears; OD600 change, %; measured here: OD600 growth;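 optical density of the mix in the first replicate; 0 = DMSO median and -100 = no signal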
rRNA inh HTS RFP – also measured in rRNA inh HTS; calls as there; RFP signal change, %; measured here: RFP humanized mutant strains;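 first replicate; 0 = DMSO median and -100 = no signal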
An asterisk follows results filed as active; i = inactive; / = not tested or not shown; + = active, no number; & = joins results of further samples. An excerpt; count on the stated rates, not on these rows.

SMILES | rRNA inh HTS | rRNA inh HTS OD600 | rRNA inh HTS RFP | ALR inh | FGF22 binding | B2AR ag | UCH37 inh | HNF4A DNA FP | E coli growth
COCCn1c(SCC(=O)Nc2ccc(Cl)cn2)nc2ccccc21 | 20 | 12 | -6.4 | 7 | i | -2 | 2.2 | 1.8 | 0.64
Cc1cccc(NC(=S)NC2CCCC2)n1 | -4 | 0 | 2.5 | -7 | i | -8 | -1.1 | -1.8 | 0.63
C=C1CC2C(CCC3(C)C2CCC3(O)C(C)=O)C2(C)CCC(=O)C=C12 (stereo unspecified) | -1 | -4 | 0.5 | -8 | i | 6 | 5.5 | -5.2 | 0.64
CC(=O)Nc1ccc2c(c1)C(=O)c1ccccc1C2=O | / | / | / | -26 | / | 2 | 3.1 | 0.0 | 0.68
CCN(CC)CC(C)CNC(=O)CC(C(=O)N1CCc2ccccc21)n1ccnc1 (stereo unspecified) | / | / | / | / | / | -4 | 1.2 | 0.4 | 0.64
CCOC(=O)C1=C(C)N=C2SCCC(=O)N2C1c1sccc1C (stereo unspecified) | / | / | / | 1 | / | -7 | 1.3 | -2.5 | 0.7
Cc1ccccc1Nc1nc(N)nc(COC(=O)c2cccc(S(=O)(=O)NCc3ccccc3)c2)n1 | / | / | / | 39 | i | -3 | 2.6 | 1.7 | 0.75
COc1cccc(OCC(=O)Nc2ccccc2C(N)=O)c1 | 3 | 14 | -1.7 | -4 | / | 0 | 3.3 | 0.0 | 0.68
O=C(OCc1cccc2ccccc12)c1ccc2c(=O)[nH]c(CN3CCOCC3)nc2c1 | / | / | / | / | / | 5 | 0.4 | -0.8 | 0.68
Nc1ccc(C(=O)OCc2ccncc2)cc1[N+](=O)[O-] | 8 | -1 | 1.7 | -4 | i | -11 | 1.4 | 2.6 | 0.64
COc1ccccc1C(NC(C)=O)c1cc(Cl)c2cccnc2c1O (stereo unspecified) | 4 | 6 | 0.4 | -17 | i | -3 | 4.3 | -3.1 | 0.69
Cc1ccc(NC(=O)N2Cc3ccccc3CC2C(=O)NC(C)(C)C)cc1 (stereo unspecified) | / | / | / | -4 | / | 7 | -0.8 | -1.8 | 0.76
CCCc1cc(=O)[nH]c(SCC(=O)c2c(N)n(C)c(=O)n(C)c2=O)n1 | / | / | / | 5 | / | 2 | -1.2 | 1.7 | 0.75
CC(C)CN1C2CCCC1CC(NC(=S)NCc1ccco1)C2 (stereo unspecified) | 24 | 14 | 3.3 | 0 | i | 1 | 1.7 | -2.3 | 0.69
Cc1ccc2nc(SCC(=O)N/N=C/c3ccc(C(=O)O)cc3)cc(C)c2c1 | 9 | 16 | 1.1 | 98* | i | -5 | / | 1.0 | /
CCC(=O)c1cc(Br)ccc1OCC(=O)N1CCN(S(=O)(=O)c2ccccc2)CC1 | -14 | -24 | 0.2 | / | i | 6 | 1.9 | 1.8 | 0.65
CC(C)(C)S(=O)(=O)/C(C#N)=N/Nc1ccc(C#N)cc1 | -32 | -38 | -6.1 | 65 | i | 15 | / | 2.6 | /
O=[N+]([O-])c1cccc(N=Cc2ccccc2)c1 | -14 | 5 | -3.4 | / | i | -3 | 5.6 | 4.0 | 0.68
COCC(=O)N1CCCC(C(=O)c2ccc(-c3ccccc3)cc2)C1 (stereo unspecified) | -23 | -23 | -3.5 | -3 | i | -3 | 6.1 | 2.7 | 0.65
Cc1cccc(N2CCCn3c2nc2c3c(=O)n(CCN3CCOCC3)c(=O)n2C)c1 | / | / | / | 6 | / | 2 | 0.6 | -2.6 | 0.67
CCOc1ccccc1OC(=O)c1ccco1 | / | / | / | -16 | / | -2 | 0.8 | 1.5 | 0.62
CCc1ccc(N2CC(C(=O)N3CCCC3)CC2=O)cc1 (stereo unspecified) | 6 | 12 | -0.5 | -5 | i | 4 | 2.5 | -3.0 | 0.71
Cc1ccc(S(=O)(=O)N2CCC[C@H]2C(=O)NCc2ccccc2Cl)cc1 | -7 | -17 | 1.4 | -24 | i | -11 | 2.4 | 0.5 | 0.73
CCN(CC)S(=O)(=O)c1ccc(C(=O)N2CCN=C2SC)cc1 | 4 | 7 | -0.2 | -1 | i | 11 | 1.9 | 5.1 | 0.69
Cc1ccc(Cl)cc1N1CCN(C(=O)COc2ccc(S(=O)(=O)NC(C)C)cc2)CC1 | 3 | -16 | 7.2 | -29 | i | 12 | 2.9 | -3.3 | 0.74
Next section
SMILES | rRNA inh HTS | rRNA inh HTS OD600 | rRNA inh HTS RFP | ALR inh | FGF22 binding | B2AR ag | UCH37 inh | HNF4A DNA FP | E coli growth
CC(C)(C)OC(=O)N(CCc1ccccc1)Cc1ccccc1OCc1cccc(NC(=O)C2CCCC2)c1 | 1 | 8 | -3.2 | / | i | -5 | / | -2.5 | /
CCOC(=O)C1(C)CCCCCN1C(=O)/C=C/c1ccccc1 (stereo unspecified) | 2 | -5 | 0.1 | / | i | / | / | -3.9 | /
O=C(Nc1cccc(F)c1)c1ccco1 | 12 | 2 | -0.1 | 4 | i | 1 | 1.6 | 4.6 | 0.69
CCc1n[nH]c2c1/C(=N/O)CCC2 | / | / | / | -7 | / | 2 | / | -1.8 | /
Cc1ccc([C@@H]2C[C@H]3[C@@H](CN2S(=O)(=O)c2ccc(Cl)cc2)C(=O)C[C@@H](c2ccccc2)N3S(=O)(=O)c2ccc(C)cc2)cc1 | 24 | 14 | 1.9 | / | i | / | / | 2.1 | /
O=C(Cc1coc2ccc3ccccc3c12)N1CCN(c2ncccn2)CC1 | / | / | / | / | / | 3 | -1.7 | 0.7 | 0.74
CCOn1c(=O)c(-c2cccs2)[n+]([O-])c2ccccc21 | / | / | / | 0 | / | -9 | -6.6 | -0.9 | 0.66
Cc1ccc(Oc2ccccc2)c(NC=O)c1 | / | / | / | -3 | / | -9 | 0.7 | -2.1 | 0.66
COc1ccccc1N1CCN(C(=O)C2C3C=CC4(CN(Cc5ccccc5Cl)C(=O)C24)O3)CC1 (stereo unspecified) | / | / | / | 15 | / | -6 | -0.9 | -4.6 | 0.75
O=C(COC(=O)/C=C/c1nc2ccccc2s1)Nc1ccccc1Oc1ccccc1 | 2 | 0 | -2.3 | 29 | i | 0 | -0.6 | -2.3 | 0.67
Cc1cc(Cl)ccc1OCC(=O)N/N=C/c1ccc(OC2OC(CO)C(O)C(O)C2O)cc1 (stereo unspecified) | -2 | 0 | -7.2 | 0 | i | -9 | / | 2.3 | /
CCCCNC(=S)NC(=O)c1ccc(Cl)cc1Cl | / | / | / | / | / | -7 | 1.8 | 0.0 | 0.73
Cn1c(C=O)c(-c2ccc3c(c2)OCCO3)c2ccccc21 | -28 | -40 | -18 | -7 | i | 12 | 4.6 | -0.8 | 0.78
Cc1oc(-c2cccs2)nc1CS(=O)CC(=O)NC1CCCCCC1 (stereo unspecified) | 1 | 12 | 1.3 | 99* | i | -13 | 1.1 | 2.0 | 0.64
COc1ccc(CNC(=O)CCC(=O)c2ccccc2)cc1 | 5 | 7 | 1.6 | -5 | i | -5 | 0.4 | -2.6 | 0.72
COc1ccccc1-n1c(SCC(=O)NC2CCS(=O)(=O)C2)nc2ccccc2c1=O (stereo unspecified) | -1 | 13 | 2.1 | / | i | -4 | -0.4 | 3.4 | 0.64
Cc1ccc(S(=O)(=O)Nc2cccc(C(=O)NCCCn3ccnc3)c2)cc1F | 0 | 4 | -0.6 | -1 | i | 7 | 5.4 | -1.5 | 0.7
CCCCCCN1CCN(C2CN(Cc3cn(CCCCCC)nn3)S(=O)(=O)C2)CC1 (stereo unspecified) | -2 | -3 | 2.5 | / | i | / | / | 5.2 | /
COc1ccc(OCC(=O)NCCS(=O)(=O)N2CCN(c3ccc(F)cc3)CC2)cc1 | 10 | 12 | 0.2 | -6 | i | 7 | 2.2 | -5.4 | 0.64
O=C1CCCc2cc3c(cc21)CC1(C3)Cc2cc3c(cc2C1)C(=O)CCC3 | -5 | -8 | -1.7 | -4 | i | 26 | / | 2.7 | /
Cc1cccc(OC(C)C(=O)Nc2ccc3c(c2)OCCO3)c1 (stereo unspecified) | 7 | 9 | 2.9 | / | + | -1 | / | 1.9 | /
CCC(C)NC(=O)COC(=O)c1ccccc1OCC(=O)Nc1ccc(Br)cc1 (stereo unspecified) | -2 | 15 | -3.3 | -6 | i | 8 | 3.5 | 4.0 | 0.73
O=C(Cn1ncc(Cl)c(Cl)c1=O)N1CCN(S(=O)(=O)c2ccc3ccccc3c2)CC1 | / | / | / | -3 | / | 12 | 0.8 | 0.3 | 0.68
CC(=O)c1c(C)[nH]c(C(=O)NNC(=O)COc2cc(C)cc(C)c2)c1C | -3 | -2 | -1.5 | / | i | -2 | 4.4 | 6.8 | 0.71
O=C1OCCC1Sc1nnnn1-c1ccccc1 (stereo unspecified) | / | / | / | 18 | / | 3 | 0.8 | -3.8 | 0.73
The list continues.
SMILES | rRNA inh HTS | rRNA inh HTS OD600 | rRNA inh HTS RFP | ALR inh | FGF22 binding | B2AR ag | UCH37 inh | HNF4A DNA FP | E coli growth
COc1ccc(S(=O)(=O)Nc2cccc3c2O[C@H](CN(C)Cc2ccc(C(=O)O)cc2)[C@@H](C)CN([C@H](C)CO)C3=O)cc1 | 3&11 | 1&6 | -1.1&0.3 | / | i | -5 | 3.6 | 2.7 | 0.71
O=C(Nc1cccc(C(F)(F)F)c1)c1cc[n+]([O-])cc1 | 0 | 10 | -3.5 | / | i | 3 | 2.4 | 3.3 | 0.64
Cc1ccc(NS(=O)(=O)c2cc(C(=O)NCCCN(C)C)ccc2Cl)cc1Cl | -2 | -8 | 2.5 | / | i | 7 | 1.4 | 3.3 | 0.69
Cc1ccc(-n2cnc3c(sc4nccc(N(C)C)c43)c2=O)cc1 | / | / | / | 1 | / | 1 | -17 | -1.6 | 0.78
O=C(Nc1ccc2c(c1)OCO2)Nc1ccc2c(c1)OCO2 | 6 | 3 | -1.3 | -18 | i | 2 | -1.5 | -0.5 | 0.72
COc1cc2c(cc1OC)C(c1cccs1)CC(=O)N2 (stereo unspecified) | / | / | / | -13 | / | -6 | -3.6 | -2.0 | 0.7
COC(=O)C1=C(CSCc2ccco2)NC(=O)NC1c1cc(C)ccc1C (stereo unspecified) | / | / | / | 5 | / | 8 | 7.3 | 3.3 | 0.77
CCc1nnc(NC(=O)COC(=O)c2cc(OC)cc(OC)c2)s1 | 1 | 1 | -0.7 | 2 | i | -2 | 1.4 | 2.8 | 0.68
Cc1nc2cc(-c3ccccc3)nn2c(C)c1CCC(=O)NC(C)c1ccc2c(c1)OCCO2 (stereo unspecified) | -12 | -19 | 8.2 | / | i | -11 | -18 | 0.9 | 0.71

3 of the entries above in order of their number in B2AR ag, descending:
SMILES	rRNA inh HTS	rRNA inh HTS OD600	rRNA inh HTS RFP	ALR inh	FGF22 binding	B2AR ag	UCH37 inh	HNF4A DNA FP
Cc1ccc(Cl)cc1N1CCN(C(=O)COc2ccc(S(=O)(=O)NC(C)C)cc2)CC1	3	-16	7.2	-29	i	12	2.9	-3.3
CCOn1c(=O)c(-c2cccs2)[n+]([O-])c2ccccc21	/	/	/	0	/	-9	-6.6	-0.9
Cc1ccc(S(=O)(=O)N2CCC[C@H]2C(=O)NCc2ccccc2Cl)cc1	-7	-17	1.4	-24	i	-11	2.4	0.5

Entries of single compounds as entered above. Order of values: rRNA inh HTS | rRNA inh HTS OD600 | rRNA inh HTS RFP | ALR inh | FGF22 binding | B2AR ag | UCH37 inh | HNF4A DNA FP | E coli growth
Record of COc1ccc(S(=O)(=O)Nc2cccc3c2O[C@H](CN(C)Cc2ccc(C(=O)O)cc2)[C@@H](C)CN([C@H](C)CO)C3=O)cc1 = 3&11 | 1&6 | -1.1&0.3 | / | i | -5 | 3.6 | 2.7 | 0.71
Record of Cc1ccc(NS(=O)(=O)c2cc(C(=O)NCCCN(C)C)ccc2Cl)cc1Cl = -2 | -8 | 2.5 | / | i | 7 | 1.4 | 3.3 | 0.69

From PubChem BioAssay
